Sa helicase inh: blocks Staphylococcus aureus DNA helicase; purified S. aureus helicase, fluorescence unwinding assay; about half of the hits fall short of the stated cut; inhibition, %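 (tested at about 80 µM)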; actives 0.05% (n = 120,000); AID 485395;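 active means both duplicates at 50% or more, or one of them with a favoured structure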;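 further: 0% = mean of negative control wells and 100% = mean of positive control wells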
MgrA-DNA mod: modulators of Staphylococcus aureus MgrA DNA binding; inhibition, %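 (about 10 µg/mL by stock and volumes)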; actives 0.13% (n = 84,000); fluorescence polarization;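 active means above 50% in either of two replicates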;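 further: 0% = protein plus DNA without compound and 100% = DNA alone without protein; higher means less MgrA bound to DNA so lower polarization; one replicate is shown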
Numbers without * were called inactive; . = not tested or not shown. The list is partial. The share of hits here may be higher or lower than overall.

Values in the order – Sa helicase inh | MgrA-DNA mod
(1) c1ccc(CC2COC(c3cccn3Cc3ccccc3)=N2)cc1 (stereo not drawn)
    3.0 | .
(2) CN1CCOCCOCCOCC1
    18.0 | .
(3) CCCn1c(C)cc(C(=O)CN(C)S(=O)(=O)c2ccc(F)cc2)c1C
    0.0 | .
(4) CC(C)(C)C1(O)CC(c2ccccc2)=NO1 (stereo not drawn)
    -3.0 | .
(5) O=c1ccsn1Cc1ccccc1
    26.0 | 12.2
(6) COc1cccc(NC(=O)c2cc3cc4ccc(C)cc4nc3o2)c1
    -3.0 | .
(7) Cn1cc(/C=C(/C#N)c2ccc(C(=O)O)cc2)c2ccccc21
    -21.0 | 6.6
(8) N#CCC(=O)N/N=C/c1ccc(OC2CSC2)cc1
    7.0 | 0.6
(9) CCCCCC1/C(=N/OC(C)=O)CCC1CC(=O)OC (stereo not drawn)
    12.0 | .
(10) CCCN1C(=O)/C(=N\OCC(=O)N2N=C(c3ccc(Cl)cc3)CC2c2ccco2)c2ccccc21 (stereo not drawn)
    -5.0 | .
(11) O=C(O)CSc1ccc(C(F)(F)F)cn1
    . | 0.9
(12) COc1ccc2occ(C(=O)c3oc4ccccc4c3N)c2c1
    . | -0.7
(13) O=C(c1ccc(F)cc1)n1cc(Cl)cn1
    0.0 | 2.7
(14) CCC(=O)N1CCN(c2ccc(N3CCOCC3)nn2)CC1
    10.0 | .
(15) OCCNc1nc2ccccc2n1CN1CCN(c2ccccc2F)CC1
    3.0 | .

Next section, overlapping the part above by 2 compounds.
Values in the order – Sa helicase inh | MgrA-DNA mod
(14) CCC(=O)N1CCN(c2ccc(N3CCOCC3)nn2)CC1
    10.0 | .
(15) OCCNc1nc2ccccc2n1CN1CCN(c2ccccc2F)CC1
    3.0 | .
(16) O=C(NCC1CCCO1)c1ccc(F)c2ccccc12 (stereo not drawn)
    10.0 | .
(17) NC(=O)C1CCN(c2nc(-c3ccccc3)nc3ccccc23)CC1
    -7.0 | .
(18) Cc1ccc(OCC(=O)Nc2ccccc2C(=O)N(C)C)cc1
    5.0 | 1.0
(19) COC(=O)Cc1nc2ccccc2[nH]1
    -25.0 | 0.3
(20) CN(CC(=O)Nc1ccc(F)cc1)C(=O)COc1ncnc2c1cnn2-c1ccccc1
    12.0 | .
(21) Cc1ccc(CSc2ncc(C(F)(F)F)cc2Cl)cc1
    . | -1.8
(22) O=C(Nc1cc(Cl)cc(Cl)c1)C1=COCCO1
    -1.0 | .
(23) COc1ccc(/C=C(\C#N)C(=O)Nn2c(-c3cc(OC)cc(OC)c3)nc3ccccc3c2=O)cc1
    . | 2.8
(24) CC(C)(C)C(=O)/C(C#N)=C/c1ccc(N2CCOCC2)cc1
    -93.0 | .
(25) CCNC(=O)c1c(C)c(C(=O)OCC)n(CC)c1C
    10.0 | -0.8
(26) CC(SC(=S)N1CCCCCC1)C(=O)O (stereo not drawn)
    8.0 | -1.6
(27) Cc1oc2c(C)c(O)c(CN(C)C)cc2c(=O)c1Oc1ccccc1F
    -3.0 | .
(28) CC(C)C1C(=O)Nc2ccc(S(=O)(=O)NC3CCCC3)cc21 (stereo not drawn)
    0.0 | .
(29) O=C(O)COc1ccc(/C=C2\C(=O)NC(=S)N(c3ccc(Cl)cc3)C2=O)cc1Br
    . | 25.3
(30) CN(C)c1ccc(N/C=C2/CCCC2=O)cc1
    0.0 | -1.5

By substructure: those above containing an aryl methoxy group (three)
Values in the order – Sa helicase inh | MgrA-DNA mod
(6) COc1cccc(NC(=O)c2cc3cc4ccc(C)cc4nc3o2)c1
    -3.0 | .
(12) COc1ccc2occ(C(=O)c3oc4ccccc4c3N)c2c1
    . | -0.7
(23) COc1ccc(/C=C(\C#N)C(=O)Nn2c(-c3cc(OC)cc(OC)c3)nc3ccccc3c2=O)cc1
    . | 2.8

Carrying on.
Values in the order – Sa helicase inh | MgrA-DNA mod
(31) Cc1[nH]c2ccccc2c1CCN1C(=O)c2ccccc2C1=O
    -4.0 | 1.8
(32) Cc1nnsc1C(=O)Nc1ccccn1
    4.0 | .
(33) CCn1nc(C)cc1Nc1ccccc1
    -10.0 | 1.5
(34) C=C(C)CN=c1scc(-c2cc3ccccc3o2)n1/N=C/c1cccc(OC)c1O
    6.0 | .
(35) Cc1cc(Cl)nc2ccccc12
    5.0 | .
(36) CC1=CC(=O)N(c2ccccn2)C1c1ccc(Cl)cc1 (stereo not drawn)
    6.0 | .
(37) CC(=O)OC12CC3CC(C1)C(O)C(C3)C2 (stereo not drawn)
    . | -2.9
(38) CCOC(=O)C1=C(C)N=C2SCCC(=O)N2C1c1ccccc1 (stereo not drawn)
    12.0 | -0.8
(39) CCc1nc(SCC(=O)N2CCCc3ccccc32)c2c(=O)n(C)c(=O)n(C)c2n1
    7.0 | .
(40) CC(=O)c1cc2c(cc1O)OC(C)(C)C=C2
    . | -1.4
(41) CCOC(=O)c1ccc(N2C(=O)CC(NCCc3ccc(S(N)(=O)=O)cc3)C2=O)cc1 (stereo not drawn)
    2.0 | .
(42) Cc1ccc(-n2ncc3c(NCC4CCCO4)ncnc32)c(C)c1 (stereo not drawn)
    11.0 | .
(43) O=C1CN(C(=O)c2ccccc2)C(c2ccc(F)cc2)c2cc(F)ccc2N1 (stereo not drawn)
    21.0 | .
(44) Cc1ccc(S(=O)(=O)Nc2cccc(CCc3ccccn3)c2)cc1
    . | -1.9
(45) CCOC(=O)CSCc1noc(COc2ccc(Cl)cc2Cl)n1
    . | -0.8
(46) CCCCNC(=O)Oc1ccc(C2=NCCS2)cc1
    5.0 | .
(47) CCNc1nc2c(c(=O)n(Cc3ccccc3)c(=O)n2C)n1Cc1ccccc1
    -3.0 | 3.9
(48) CCOC(=O)N/N=C1\CCS(=O)(=O)c2ccc(Cl)cc21
    20.0 | .
(49) Cc1ccc(N2C(=O)C(CC(=O)Nc3cccc(F)c3)N(C3CC3)C2=O)cc1 (stereo not drawn)
    -12.0 | .
(50) Cc1ccc(CC2SC(N3CCN(c4ccccc4)CC3)=NC2=O)cc1 (stereo not drawn)
    9.0 | -1.6
(51) C=CCSc1nc2ccccc2c(=O)n1CC=C
    -6.0 | .
(52) COC(=O)c1ccccc1NC(=O)c1cccnc1
    -15.0 | -3.1
(53) O=C(O)C1C2CCC(C2)C1C(=O)Nc1ccc(Cc2ccncc2)cc1 (stereo not drawn)
    -23.0 | .
(54) Cc1cc(C(=O)CN(Cc2ccco2)C2CCS(=O)(=O)C2)c(C)n1Cc1cccs1 (stereo not drawn)
    11.0 | .
(55) COc1cccc(OCCSc2nc(-c3ccccc3)cc(=O)[nH]2)c1
    10.0 | 1.8
(56) CNC(=O)c1ccc2c(c1)CCCN2S(C)(=O)=O
    11.0 | .
(57) COC(=O)C1=C(C)NC2=C(C(=O)CC(c3ccccc3Cl)C2)C1c1cc(OC)c(OC)c(OC)c1 (stereo not drawn)
    . | 0.5
(58) Cc1cc(C)n2nc(SCC(=O)N3c4ccccc4CC3C)nc2n1 (stereo not drawn)
    -8.0 | .
(59) CCOC1(C)OC2CCC(CC)OC2O1 (stereo not drawn)
    6.0 | -2.7
(60) O=C1c2ccccc2C(=O)N1CSc1ncnc2c1cnn2-c1ccccc1
    -1.0 | .
(61) N#Cc1sccc1CS(=O)(=O)c1ccc(Cl)cc1
    19.0 | .
(62) Cc1c(Cl)ccc2sc(N(Cc3ccccn3)C(=O)c3ccco3)nc12
    -15.0 | .
(63) NS(=O)(=O)c1ccc(-c2ccc(/C=C3\Sc4ccccc4C3=O)o2)cc1
    . | -7.0
(64) O=C(CSc1nnc(CNc2ccc(F)cc2)o1)N1CCOCC1
    -4.0 | 3.7
(65) Cc1ccc(SCc2cc(=O)[nH]c(/N=C(/N)Nc3ccccc3)n2)cc1
    14.0 | 2.6
(66) CCOC(=O)C1=C(O)CSC1=NC(=O)c1ccc(OC)cc1
    -24.0 | 0.7
(67) CCOC(=O)c1cnn(-c2ncnc3sc(-c4ccccc4)cc23)c1N
    8.0 | .
(68) CCOC(=O)N1CCN(C(=O)CN(c2ccc(C)cc2)S(=O)(=O)c2cc(C)ccc2OC)CC1
    -20.0 | 2.9
(69) O=C(C1CC1)N1CCN=C1SCc1cccc(C(F)(F)F)c1
    -1.0 | .
(70) c1ccc(-c2cc3ncnc(N4CCSCC4)c3s2)cc1
    -18.0 | .
(71) CC(=O)Oc1ccc(S(=O)(=O)c2ccc(OC(C)=O)cc2)cc1
    13.0 | .
(72) O=C(O)Cn1c2c(c3ccccc31)CSc1ccc(Cl)cc1-2
    14.0 | 27.0
(73) Nc1nc2ccccc2c(=O)[nH]1
    . | -0.8
(74) NC(=O)c1cc(S(=O)(=O)NCCN2CCc3ccccc3C2)cs1
    4.0 | .
(75) CC1=NN(C(=O)CCc2ccccc2)C(O)(c2ccccc2)C1 (stereo not drawn)
    4.0 | 2.4
(76) CC1CCN(c2cc(N3CCN(C(=O)c4ccco4)CC3)c3c4c(onc24)-c2ccccc2C3=O)CC1
    -121.0 | .
(77) Cc1nn(C)c2oc(=O)c(Cl)c(C)c12
    . | 1.5
(78) Cc1nc2c(C)cccc2c2c1CCN2c1ccccc1F
    34.0 | .
(79) CN(C(=O)c1ccc(Cl)cc1)C1(C)CCS(=O)(=O)C1 (stereo not drawn)
    -50.0 | .
(80) c1ccc(-c2cc3nccc(-c4cccs4)n3n2)cc1
    . | -1.2
(81) CNCC(O)c1cccc(O)c1 (stereo not drawn)
    7.0 | -3.0
(82) CCCC12CN(C(=O)CC(C)C)CC(CCC)(CN(C(=O)CC(C)C)C1)C2=O
    2.0 | .
(83) CCOC(=O)c1cccc(C(=O)Oc2ccc3cc(Br)ccc3c2)n1
    5.0 | .
(84) NC(=O)C1CCN(C(=O)CCSCc2ccccc2)CC1
    -2.0 | -1.9
(85) CC1(C)CCCC2(C)C1CCC(C)(O)C2CCO (stereo not drawn)
    2.0 | 1.3
(86) CCc1ccccc1N(C)C(=O)Cc1c(C(=O)O)[nH]c2ccccc12
    5.0 | -2.7
(87) O=C(NCc1ccccc1)C1CCCN(c2nc3ccsc3c(=O)s2)C1 (stereo not drawn)
    0.0 | 0.8
(88) COc1ccc(C2c3ccsc3CCN2C(=O)c2c(C)noc2C)cc1 (stereo not drawn)
    . | -0.4
(89) CCn1c(CSc2nc(C)c(C)n2C2CCCC2)nc2cc(S(=O)(=O)N(C)C)ccc21
    11.0 | .
(90) CNc1ccccc1C(=O)Nc1cccc(OC)c1
    9.0 | .

Further results.
Values in the order – Sa helicase inh | MgrA-DNA mod
(91) COCCn1c(SCC(=O)N2CCc3ccccc32)nc2c(c1=O)SC(C)C2 (stereo not drawn)
    4.0 | .
(92) Cc1ccnc(NC(=O)Cn2ncc3c2-c2ccccc2OC3)c1
    -13.0 | .
(93) O=S1(=O)CCC(NCc2cc(Cl)c3c(c2)OCCCO3)C1 (stereo not drawn)
    9.0 | .
(94) CC(CC1CC(C)(C)OC1=O)C(=O)Nc1nncs1 (stereo not drawn)
    6.0 | 2.1
(95) O=C(O)c1cnn2c(C(F)F)cc(C3CC3)nc12
    -2.0 | -0.8
(96) CC(C)OC(=O)CSc1ncnc2scc(-c3ccccc3)c12
    -3.0 | 1.1
(97) Cn1c(Sc2cnn(-c3ccccc3)c(=O)c2Br)nnc1-c1ccccc1
    6.0 | -3.2
(98) c1ccc2c3c([nH]c2c1)CCCC3
    9.0 | .
(99) O=C(Cn1cnc([N+](=O)[O-])n1)Nc1ccc([N+](=O)[O-])cc1Cl
    . | 2.8
(100) c1ccc2c(c1)OCC(CNCC1COc3ccccc3O1)O2 (stereo not drawn)
    5.0 | 3.5
(101) Cc1ccc(C)c(N2CCN(C(=O)c3ccc(N4CCCC4=O)cc3)CC2)c1
    2.0 | 0.4
(102) CCOc1ccc(NC(=O)CSc2oc(-c3ccccc3)nc2S(=O)(=O)c2ccccc2)cc1
    14.0 | 1.2
(103) CCS(=O)(=O)c1ccc(O)c(N2C(=O)c3cccc4cccc(c34)C2=O)c1
    4.0 | .
(104) N#CCc1ccc(NC(=O)CCc2nc3cccnc3n2Cc2cccs2)cc1
    -30.0 | .
(105) Cc1ccc(C(=O)COC(=O)COc2ccccc2O)cc1C
    -2.0 | .
(106) CCOC(=O)c1sc(NC(=O)C2COc3ccccc3O2)c(C(=O)OCC)c1C (stereo not drawn)
    . | 3.0
(107) N#Cc1c(OCC(F)(F)F)cccc1OCC(F)(F)F
    . | -0.8
(108) CC(C)/C=C1\CC/C(=C\c2ccc(C(F)(F)F)cc2)C1=O
    7.0 | -0.9
(109) COc1cc(N)c(Cl)cc1C(=O)OCC(=O)c1ccc2c(c1)OCCO2
    19.0 | .
(110) COC(=O)C1(C(F)(F)F)N=C(C)OC(N2CCOCC2)=N1 (stereo not drawn)
    19.0 | .
(111) COc1ccc2c(CC(=O)OCC(=O)Nc3ccccc3)coc2c1
    4.0 | .
(112) CCOC(=O)c1c(C)n(-c2ccccc2)c2ccc(OC)cc12
    . | -0.9
(113) O=[N+]([O-])c1cccnc1Sc1ccccc1C1=NCCCN1
    . | 0.9
(114) COC(=O)c1sc2ccccc2c1NC(=O)Cc1ccccc1
    2.0 | .
(115) Cc1c(C#N)c(NC(=O)CSc2cc(C)c3ccccc3n2)n(Cc2ccco2)c1C
    20.0 | .
(116) CCCN(C(=O)c1ccccc1)c1c(N)n(Cc2ccccc2)c(=O)[nH]c1=O
    -3.0 | .
(117) O=C(OCn1cncn1)c1ccc(Cl)cc1Cl
    6.0 | .
(118) CNc1nc(N2CCCC2)ncc1F
    -21.0 | 5.3
(119) CCC1C(=O)C(CC)C(c2ccccc2)NC1c1ccccc1 (stereo not drawn)
    -9.0 | -0.8

2 entries from above, as labelled records.
111) COc1ccc2c(CC(=O)OCC(=O)Nc3ccccc3)coc2c1
  Sa helicase inh: 4.0 | MgrA-DNA mod: .

112) CCOC(=O)c1c(C)n(-c2ccccc2)c2ccc(OC)cc12
  Sa helicase inh: . | MgrA-DNA mod: -0.9

Assay outcomes as filed in PubChem BioAssay.
